Assay outcomes (PubChem)
StopGo FLuc: FMDV 2A StopGo reporter, firefly signal. HEK cells with a luciferase reporter of 2A StopGo recoding. Potency, µM (doses to about 57.5 µM), for inactives: at the highest dose signal change, negative = less light. actives 0.23% (n = 120,000); active = well fitted falling curve with a large enough effect; inconclusive = small, poorly fitted or top-dose-only effect; inactive = no such curve, though single readings can be large or run the other way; also: nearly all actives have a fitted effect of over 60% in size; overnight with compound
2A Renilla: lowers the Renilla signal of an FMDV 2A StopGo reporter | HEK cells with a luciferase reporter of 2A StopGo recoding | Potency, µM (series often up to 57.5 µM), without a hit: at the top dose signal change, negative = less light | actives 0.32% (n = 120,000) | AID 1745857; active means well fitted falling curve with a large enough effect; inconclusive means small, poorly fitted or top-dose-only effect; inactive means no such curve, though single readings can be large or run the other way; also: nearly all actives have a fitted effect of over 55% in size; overnight with compound
Active calls of the source: *; ? = inconclusive; & = joins results of further samples; [ ] = dose if it differs, or a comment. % is scaled to controls: 0 for no effect and ±100 for the full control effect; potency is read from the fitted curve at half-maximal effect.

Values in the order – StopGo FLuc, 2A Renilla
CN1CCC(N(C)c2ncnc3scc(-c4ccc(Br)cc4)c23)CC1
  -16%, -17%
COc1ccc2c(c1)O/C(=C\c1ccc(OS(C)(=O)=O)cc1)C2=O
  0%, 17%
COc1ccc(NC(=O)CSC2=Nc3ccccc3C3=NC(CCC(=O)NCc4cccs4)C(=O)N23)cc1 (configuration not stated)
  -7%, 10%
CCCn1nc(C(=O)OCC(=O)N(CC)Cc2ccccc2)c2ccccc2c1=O
  8%, 0%
CCOc1ccc(CNC(=O)C2CCCN(S(=O)(=O)c3ccc4c(ccn4C)c3)C2)cc1 (configuration not stated)
  ?, 34%[activator]
N#Cc1ccc(NC(=O)Cn2c(=O)c3c(ncn3C3CCCC3)n(Cc3ccccc3)c2=O)cc1
  4%, 7%
COc1ccc(C(C)=O)c(OC(=O)c2ccc(F)cc2F)c1
  97%[activator], 10%
CCC(=O)N1CCc2cc(S(=O)(=O)NC(Cc3ccccc3)C(=O)Nc3ccc(Cl)cc3)ccc21 (configuration not stated)
  -18%, 10%
NC(N)=NCCCN1CCCC1
  -11%, ?
COc1ccc(-c2nc(C#N)c(N3CCN(C(=O)c4cccs4)CC3)o2)cc1OC
  2%, -8%
Cc1ccc(-c2cc(C(=O)OCC(=O)c3ccccc3)c3cccc(Cl)c3n2)cc1
  7%, 1%
CCN(CC)Cc1ccc(C(=O)O)o1
  3%, 5%
CN(C)CC(O)COc1ccc(NC(=O)Nc2ccccc2F)cc1 (configuration not stated)
  81%[activator], -1%
CC(=O)[C@H]1CC[C@H]2[C@@H]3CC=C4C[C@@H](O)CC[C@]4(C)[C@H]3CC[C@]12C
  0%[11.5 µM], -6%
CCOc1ccc(NC(=O)c2c(NC(=O)c3cccc(C)c3)sc3c2CCC3)cc1
  3%, -7%
CCc1ccc2oc(C(=O)Nc3ccc(S(=O)(=O)Nc4onc(C)c4C)cc3)cc(=O)c2c1
  -9%, -14%
Cc1cc(C)c(C(=O)COC(=O)c2ccc(N3CCCC3=O)cc2)cc1C
  15%, -8%
Cn1cc(C(=O)CN2C(=O)COc3ccccc32)c2ccccc21
  19%, -1%
CCOc1ccc(NC(=O)c2cc(=O)c3cc(C)c(C)cc3o2)cc1
  0%, -7%
COc1cccc(CNC(=O)c2ncoc2-c2cccc(Cl)c2)c1
  9%, -3%
O=C(CCn1c(=O)c2sccc2n(Cc2ccc(F)cc2)c1=O)NCc1ccc2c(c1)OCO2
  15%, -12%
Cn1nc(C(=O)Nc2ccnn2Cc2ccc(Cl)cc2Cl)c2ccccc2c1=O
  6%, 9%
CCCS(=O)(=O)N1CCCC(C(=O)NCCOC)C1 (configuration not stated)
  -17%, -10%
COc1cc2c(cc1OC)n(CC(=O)Nc1ccccc1)c(=O)n1nc(-c3ccccc3)nc21
  -30%, -19%
COc1ccc2nc(C)c(C(=O)NCCCC(N)=O)cc2c1
  -6%, -12%
O=C(Cc1ccc(Cl)cc1Cl)N1CCN(c2ccccc2O)CC1
  29%, -12%
CCOC(=O)c1c(SCC(=O)Nc2cc(Cl)cc(Cl)c2)nc(=O)[nH]c1C
  -18%, -5%
CCCCCn1nc(C(=O)Nc2ccc(F)cc2)c2ccccc2c1=O
  0%, 0%
Cc1cccc(NC(=O)CSC2=Nc3ccccc3C3=NC(CC(=O)NCc4cccs4)C(=O)N23)c1 (configuration not stated)
  3%, 2%
COCCn1c(-c2ccc(OCc3ccccc3)c(OC)c2)nc2c1c(=O)[nH]c(=O)n2CC(C)C
  16%, 10%
CCCn1nc(C(=O)NCc2ccccn2)c2ccccc2c1=O
  0%, -1%
O=C(Cn1cnc2nc3c(cc2c1=O)CCCC3)N1CCN(c2cccc(C(F)(F)F)c2)CC1
  -7%, -5%
CCC(CC)NC(=O)COC(=O)c1cc(C)nc2ccccc12
  2%, -2%
Cc1cccc(NC(=O)CSc2nc3c(c(=O)[nH]2)CN(Cc2ccc4c(c2)OCO4)CC3)c1C
  -6%, -3%
Cc1cnc2c(S(=O)(=O)N3CCN(CC(F)(F)F)CC3)cccc2c1
  -14%, 9%
COCc1cnc2c(c1SCC(=O)NCc1ccccc1Cl)c(=O)n(C)c(=O)n2C
  -1%, -17%
Cc1cccc(-c2nnc(SCC(=O)Nc3cc(F)ccc3C)n2N)c1
  -3%, 3%
Cc1ccc(C(=O)C(Sc2ncccn2)c2ccc(C)cc2)cc1 (configuration not stated)
  47%[activator], 91%[activator]
COc1ccc(N2CC(NC(=O)COc3ccccc3F)CC2=O)cc1OC (configuration not stated)
  -7%, -11%
CC1CCCc2c1nc1sc3c(c1c2-c1ccc(Cl)cc1)CCC3 (configuration not stated)
  -11%, 0%
CCOc1ccc(CNC(=O)c2cccn2-c2nnc(N3CCCCC3)s2)cc1
  0%, 62%[activator]
CCOc1ccccc1NC(=O)Cn1c(=O)n(Cc2ccco2)c(=O)c2cccnc21
  31%, 16%
COc1ccc(NC(=O)c2noc3c2CCCC3)cc1Cl
  232%[activator], 2%
CCc1cccc(C)c1NC(=O)CCc1c[nH]c2ccccc12
  -4%, 0%
CCN(CC)C(=O)CSc1nnc2[nH]c(=O)cc(C)n12
  -5%, 4%
Cc1nn(CN2CCN(S(=O)(=O)c3cccc(Cl)c3Cl)CC2)c(=O)c2ccccc12
  -1%, -3%
Cc1cc(C)c2nc(Nc3nc(C(C)C)cc(=O)[nH]3)nc(C)c2c1
  29%, 13%
CC(C)C1CC(CCN2CCOCC2)(c2ccccc2)CCO1 (configuration not stated)
  -3%&-3%, 4%&-12%
Cc1ccc2c(=O)cc(C(=O)Nc3nc4ccc(C)cc4s3)oc2c1
  -8%, -15%
COc1ccc(OCc2ccc(-c3nc(C#N)c(NCc4cccnc4)o3)o2)cc1
  -30%, -19%
CCOC(=O)C1CCCN(c2ncnc3c2cnn3-c2ccc(C)c(Cl)c2)C1 (configuration not stated)
  51%[activator], -6%
O=C(Nc1ccc(F)cc1)N1CCN(c2ccc3nnc(-c4ccc(F)cc4)n3n2)CC1
  84%[activator], 55%[activator]
Cc1ccc2nc(-c3ccc(NC(=O)C(C)C)cc3)oc2c1
  107%[activator], 19%
C#CC(C)(CC)NC(=O)c1cc2c(n(-c3ccc(Cl)cc3)c1=O)CC(C)(C)CC2=O (configuration not stated)
  10%, 6%
Cc1ccc(NC(=O)CN2C(=O)COc3ccc(S(=O)(=O)NC4CCCC4)cc32)cc1Cl
  -5%, 197%[activator]
COc1ccc(-c2onc(C)c2C)cc1S(=O)(=O)Nc1cc(Cl)ccc1C
  24%, -3%
COc1cc(CC(=O)OCc2cccc(Br)c2)cc(OC)c1OC
  8%, -8%
COc1cccc(C(=O)NC2=NC(c3ccccc3F)CC(=O)N2)c1 (configuration not stated)
  -6%, -19%
Cc1cc(C(=O)N2CCN(S(=O)(=O)c3ccc4c(c3)CCC4)CC2)c(C)n1C1CC1
  -12%, -24%
CC(C)Sc1nc2c(c(=O)[nH]c(=O)n2C)n1Cc1ccc(Cl)cc1
  3%, 7%

Later entries:
Values in the order – StopGo FLuc, 2A Renilla
O=C(C1CCCN(S(=O)(=O)c2cccc3nsnc23)C1)N1CCN(c2cccc(Cl)c2)CC1 (configuration not stated)
  0%, -5%
O=C(CSc1ccc2c(c1)OCCO2)NC1c2ccccc2-c2ccccc21
  20%, 18%
CCN1CCc2c(sc(-n3cccc3)c2C(C)NC(=O)Nc2cc(Cl)c(OC)cc2OC)C1 (configuration not stated)
  -19%, 3%
C=CCn1c(SCCCc2ccccc2)nc2c1c(=O)n(C)c(=O)n2C
  ?, ?
CCOC(=O)CNC(=O)NCc1cccn1Cc1ccccc1C
  -4%, -7%
O=C(Cn1ncc2ccccc2c1=O)NC1CCCC1
  0%, 12%
N#Cc1ccc(NC(=O)N(Cc2ccncc2)C2CC2)cc1
  5%, 0%
C=CCSc1nc(-c2cccs2)cc(C(F)(F)F)c1C#N
  ?, ?
CC(=O)Nc1c(-c2ccccc2)c(C)nn1-c1ccc(C(=O)NCc2ccccn2)cc1
  -6%, -9%
O=C(Nc1ccc(N2CCC(N3CCCCC3)CC2)c(C(=O)O)c1)c1ccccc1
  -18%, -13%
CCC(C)NC(=O)Nc1sc(C)c(C)c1C#N (configuration not stated)
  30%, 22%
CCOc1ccc(C(=O)NCc2coc(-c3cccs3)n2)cc1
  153%[activator], 40%[activator]
Cc1ccc(Cl)cc1NC(=O)Nc1nnc(N(C)Cc2ccccc2)s1
  -18%, -21%
Cc1cc(C(=O)OCC(=O)N2CCC(C)CC2)c2ccccc2n1
  9%, -2%
CC(C)c1cc(-c2nc(-c3ccccc3)no2)n[nH]1
  37%[activator], 2%
Cc1ccc(OCC(=O)Nc2ccc3c(c2)nc(CCn2nc(C)cc2C)n3C)cc1
  -27%, -27%
CCOC(=O)c1c(NC(=O)/C=C/c2ccccc2)sc2c1CCCC2
  -11%, -4%
Cc1ccc(CNc2ccc(-c3nc(-c4cccnc4)no3)cc2[N+](=O)[O-])cc1
  39%[activator], -6%
CCOc1cccc(C(=O)N(Cc2ccc(F)cc2)c2ccccn2)c1
  16%, 82%[activator]
CC(=O)c1ccc(NC(=O)Nc2nnc(N3CCCC(C)C3)s2)cc1 (configuration not stated)
  -8%, -8%
Cc1ccc(CC(=O)NCc2ccc(COC(C)C)cc2)cc1
  50%[activator], 8%
CCOc1ccc(CCNC(=O)Cn2nnc(-c3ccccc3Cl)n2)cc1OCC
  -18%, -5%
COc1ccc(CCNC(=O)c2ccc(CS(=O)(=O)c3ccc(C)cc3)o2)cc1OC
  -42%, -39%
CC(C(=O)NCc1cccc(Br)c1)n1ncn2cccc2c1=O (configuration not stated)
  27%, -8%
COc1ccc(NC(=O)CCS(=O)(=O)c2cc3c4c(c2)CCN4C(=O)CC3)c(OC)c1
  -19%, -5%
COc1cc(CC(=O)N2CCN(C(=O)c3ccc4ccccc4c3)CC2)cc(OC)c1OC
  2%, -5%
CCOC(=O)N1CCc2c(sc(NCc3ccc(OC)c(Br)c3)c2C(=O)Nc2cc(OC)ccc2OC)C1
  -11%, 1%
COc1ccc2oc(C(=O)N3CCC(C(=O)Nc4ccc5c(c4)OCO5)CC3)c(C)c2c1
  0%, -4%
CC(C)CCCC(C)NC(=O)C1CCN(c2ncnc3nc[nH]c23)CC1 (configuration not stated)
  -7%, -4%
O=C(c1ccc(CSc2nc3ccncc3n2Cc2ccccc2F)cc1)N1CCCCCC1
  28%, -12%

Compounds from the list above that have a COOH group:
Values in the order – StopGo FLuc, 2A Renilla
CCN(CC)Cc1ccc(C(=O)O)o1
  3%, 5%
O=C(Nc1ccc(N2CCC(N3CCCCC3)CC2)c(C(=O)O)c1)c1ccccc1
  -18%, -13%

Back to the main list; the 6 compounds before the break are reprinted first.
Values in the order – StopGo FLuc, 2A Renilla
COc1ccc(NC(=O)CCS(=O)(=O)c2cc3c4c(c2)CCN4C(=O)CC3)c(OC)c1
  -19%, -5%
COc1cc(CC(=O)N2CCN(C(=O)c3ccc4ccccc4c3)CC2)cc(OC)c1OC
  2%, -5%
CCOC(=O)N1CCc2c(sc(NCc3ccc(OC)c(Br)c3)c2C(=O)Nc2cc(OC)ccc2OC)C1
  -11%, 1%
COc1ccc2oc(C(=O)N3CCC(C(=O)Nc4ccc5c(c4)OCO5)CC3)c(C)c2c1
  0%, -4%
CC(C)CCCC(C)NC(=O)C1CCN(c2ncnc3nc[nH]c23)CC1 (configuration not stated)
  -7%, -4%
O=C(c1ccc(CSc2nc3ccncc3n2Cc2ccccc2F)cc1)N1CCCCCC1
  28%, -12%
CCOc1cc(C(=O)NCCc2csc(-c3ccc(C)cc3)n2)cc(OCC)c1OCC
  -20%, -15%
COc1cc(CC(=O)NC(C)c2cccs2)cc(OC)c1OC (configuration not stated)
  6%, 8%
O=C(CSCc1nc2cccnc2n1C1CCCCC1)NCc1cccc(Cl)c1
  -16%, 25%
Cc1ccc(CC(=O)Nc2cccc(C(=O)N3CCc4sccc4C3)c2C)cc1
  0%, 0%
Cc1ccc(C2(C)N(O)C(C)C(c3cccs3)=[N+]2[O-])cc1 (configuration not stated)
  ?, 12%[1.06 µM]
COc1cc(C2C(C(=O)Nc3ccccc3C)=C(C)Nc3nc(SCc4cc(C)ccc4C)nn32)ccc1O (configuration not stated)
  -22%, -11%
Oc1ccc2c(-c3ccc(F)cc3)noc2c1
  206%[activator], 7%
CC(=O)Nc1cccc(C(C)NC(=O)NOCc2ccccc2)c1 (configuration not stated)
  33%[activator], 2%
CCn1c(CN2CCN(C)CC2)nc2cc(NC(=O)c3cc(OC)c(OC)c(OC)c3)ccc21
  5%, 10%
Cc1cc(=O)oc2cc(OCC(=O)NCCC#N)c(Cl)cc12
  9%, 3%
CCCCOC(=O)c1ccc(NC(=O)/C(C#N)=C/c2ccc(C)o2)cc1
  -10%, -8%
COc1ccc(C(=O)Oc2ccc3c(=O)c(Oc4cccc(OC)c4)coc3c2)cc1
  0%, 4%
CCCCn1nc(C(=O)NCC(c2ccco2)N2CCCC2)c2ccccc2c1=O (configuration not stated)
  -2%, 9%
CCOC(=O)c1cc(S(=O)(=O)NCc2ccc(OC)cc2)[nH]n1
  -10%, -11%
Cc1ccc(CCNC(=O)C2CCCN(Cc3nc(-c4cccc(Cl)c4)oc3C)C2)cc1 (configuration not stated)
  0%, 15%
CCOC(=O)C(C)Sc1nnc2ccc3ccccc3n12 (configuration not stated)
  35%[activator], 5%
COc1cccc(/C(C)=N/NC(=O)C2CC2)c1
  40%[activator], 0%
CSc1ccc(/C=C/c2nc3ccccc3c(=O)n2-c2cccc(Cl)c2C)cc1
  -9%, -8%

These rows are one share of the data. The share of hits here may be higher or lower than overall.
